Compound activity as filed in PubChem BioAssay.
Rango dissoc inh = qHTS Assay for Inhibitors of RanGTP induced Rango (Ran-regulated importin-beta cargo) - Importin beta complex dissociation | Biochemical FRET Rango-importin beta, RanGTP-induced dissociation | actives 0.071% (n = 340,000) | Potency, µM (highest dose often 46.1 µM), for inactives: at the highest dose activity change, negative = inhibition | Snurportin-1 (Homo sapiens) + GTP-binding nuclear protein Ran (Homo sapiens) + Importin … | AID 540253, 2011; active means falling FRET ratio curve, often poorly fitted, with flat reads before Ran was added; inconclusive means other falling curves, or compound fluorescence or quenching; inactive means flat or rising ratio curve;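 also: potency is read from the fitted curve at half-maximal effect; % of control where 0% means no effect; nearly all actives have a fitted effect of over 45% in size; -100% = wells without RanGTP and RCC1; the record marks most hits as doubtful in a second field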
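Two FRET readings bracket the reaction: one 5 min after compound meets Rango–importin beta, another 45 min after RanGTP-RCC1 (0.6 uM Ran, 0.2 uM RCC1, 2 mM GTP) is added. Only the second defines inhibition.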
Rango-impB inh = qHTS Assay for Inhibitors of Rango (Ran-regulated importin-beta cargo) - Importin beta complex formation; Rango CFP/YFP FRET sensor + importin beta, 45 min; Potency, µM (titrated, usually from 92.2 µM), for the others: at the top dose inhibition of complex formation; AID 540263, 2011; actives 0.031% (n = 340,000); Importin subunit beta-1 (Homo sapiens), Q14974; active = rising FRET ratio curve, often small or poorly fitted; inconclusive = mostly compound fluorescence or quenching in the first reads; inactive = flat curves in all reads;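 also: potency is read from the fitted curve at half-maximal effect; 0% = DMSO wells and 100% = buffer wells lacking importin beta; nearly all actives have a fitted effect of over 15% in size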
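Inhibition scored from the CFP 486 nm/YFP 530 nm FRET ratio 45 min after adding 0.125 microM importin beta to 50 nM Rango biosensor preincubated 5 min with compound (room temperature, PBS with DTT, Tween-20, BSA). No-importin wells as positive control.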
GLA inh pH 4.5 = qHTS Assay for Inhibitors of Human alpha-Galactosidase at pH 4.5. Alpha-galactosidase A (Homo sapiens), P06280. purified enzyme, 4-MU-alpha-Gal fluorescence, pH 4.5. activity change, negative = inhibition, % at 105 µM. 230,000 tested, under 10 active. AID 1467, 2008; inconclusive = small, poorly fitted or top-dose-only inhibition, or a rising curve; inactive = flat fitted curve, though single readings scatter; no compound was filed as active;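 also: 0% = full activity with enzyme and -100% = basal without enzyme; dose as in the result columns while the protocol names 77 µM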
Target sequence (P06280 whole entry, looked up): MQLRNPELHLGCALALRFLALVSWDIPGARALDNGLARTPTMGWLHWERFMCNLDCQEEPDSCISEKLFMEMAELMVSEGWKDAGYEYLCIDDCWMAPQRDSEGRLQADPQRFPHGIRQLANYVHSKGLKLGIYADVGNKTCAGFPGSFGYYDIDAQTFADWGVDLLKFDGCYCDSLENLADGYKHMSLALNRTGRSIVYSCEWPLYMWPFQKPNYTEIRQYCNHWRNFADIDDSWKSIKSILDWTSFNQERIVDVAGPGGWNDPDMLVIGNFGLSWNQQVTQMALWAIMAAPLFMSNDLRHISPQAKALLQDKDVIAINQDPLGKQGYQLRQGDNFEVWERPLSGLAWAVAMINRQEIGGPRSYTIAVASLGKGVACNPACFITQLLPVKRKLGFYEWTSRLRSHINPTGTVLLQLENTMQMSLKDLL
miR-21 reporter = qHTS Assay for Modulators of miRNAs and/orActivators of miR-21 | HeLa miR-21 FLuc reporter, luciferase, 48 h | 340,000 tested, under 10 active | Potency, µM (titrated, usually from 38.3 µM), for the others: at the top dose reporter change, positive = more light; active = well fitted rising curve with a large enough effect; inconclusive = small, poorly fitted or top-dose-only effect; inactive = no such curve, though single readings can be large or run the other way;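 also: % of control where 0% means no effect; miR-21 action dims this reporter so a rising signal means less miR-21 action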
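HeLa cells endogenously expressing miR-21, stably carrying CMV-driven firefly luciferase with a downstream miR-21 binding site, 2000 cells/well. Titrations up to approximately 40 uM, 48 hours; luciferase luminescence read.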
The depositor's hits bear a star; ? = inconclusive; / = no result given; & = joins results of further samples.

Short forms – A = Rango dissoc inh; B = Rango-impB inh; C = GLA inh pH 4.5; D = miR-21 reporter
Cc1ccc2nc3c(cc2c1)c(NC(=O)C1CCCO1)nn3CC(C)C (stereo unspecified)
  A = ?; B = ?; C = 8; D = -7%
CN(CC(=O)Nc1cccc(F)c1)C(=O)Cn1c(=O)cnc2ccccc21
  A = 13%; B = -1.7%; C = /; D = /
CCSc1nc2c(cnn2-c2ccccc2)c(=O)n1N
  A = 16%; B = 2.3%; C = 4; D = -60%
COc1ccc(Cn2nnnc2C(c2cc3ccc(OC)cc3[nH]c2=O)N2CCC(C)CC2)cc1 (stereo unspecified)
  A = ?; B = ?; C = -9; D = -9%
Cn1cc(CN2CCC(n3nccc3NC(=O)CCc3ccccc3)CC2)cn1
  A = -15%; B = -2.7%; C = /; D = -2%
O=C(Nc1ccc(CN2CCOCC2)cc1)c1ccc(-c2cccc(Cl)c2)o1
  A = -11%; B = -4.8%; C = 6; D = ?
CCCCCC(=O)NCC(C)NC(=O)CCCCC (stereo unspecified)
  A = 4%; B = 2.7%; C = 5; D = -6%
COc1ccc(-c2nc3ccccc3o2)cc1NC(=O)CSc1ccc(Cl)cc1
  A = -1%; B = -3.9%; C = 0; D = -19%&-15%
CC1C/C=C/C=C/C=C/C=C/C(O[C@@H]2O[C@H](C)[C@@H](O)[C@H](N)[C@@H]2O)CC2OC(O)(CC(O)CC3OC3/C=C/C(=O)O1)CC(O)C2C(=O)O (stereo partly specified)
  A = /; B = /; C = 1; D = -9%
COc1ccc(CC(=O)NCc2n[nH]c(=S)n2-c2cccc(Cl)c2)cc1
  A = ?; B = 3.3%; C = -2; D = -2%
Cc1ccc(CCN2CC(C(=O)NCCCN3CCCCC3)CC2=O)cc1 (stereo unspecified)
  A = -4%; B = 2.4%; C = /; D = -1%
COc1ccc(-c2ccc(SCC(=O)Nc3nnc(C)s3)nn2)cc1
  A = 0%; B = -0.7%; C = 4; D = -15%
Cc1cc(C(C)(C)C)ccc1OCCN1CCCC1
  A = -1%; B = -2.1%; C = -8; D = 0%
Cc1ccccc1Oc1nc2ccccc2n2cnnc12
  A = 2%; B = -0.8%; C = 8; D = 1%
COC(=O)c1cc(C(=O)NNC(=O)c2ccc3c(c2)OCO3)cc([N+](=O)[O-])c1
  A = 1%; B = 7.6%; C = /; D = /

New compounds follow
Short forms – A = Rango dissoc inh; B = Rango-impB inh; C = GLA inh pH 4.5; D = miR-21 reporter
Cc1ccccc1COC(=O)c1cc([N+](=O)[O-])ccc1N1CCOCC1
  A = 2%; B = 0.1%; C = /; D = 7%
O=C(NNS(=O)(=O)c1ccc(Br)cc1)c1cccs1
  A = 0%; B = -2.5%; C = -2; D = -3%
CCOc1ccc(OCC(=O)Nc2cc3c(cc2C(=O)O)OCCCO3)cc1
  A = -3%; B = 3.3%; C = /; D = -4%
c1ccc(COc2ccc(-c3csnn3)cc2)cc1
  A = 1%; B = 3.6%; C = -23; D = -46%
O=C(NCC(c1ccco1)N1CCCC1)c1ccc(Cl)cc1 (stereo unspecified)
  A = 22%; B = 4.4%; C = 0; D = -1%
CSC1=NCCN1C(=O)C(C)(C)Oc1ccc(Cl)cc1
  A = 10%; B = 0.0%; C = /; D = /
O=C(NCc1ccccn1)C(=O)NCC1OCCN1S(=O)(=O)c1ccc(Br)cc1 (stereo unspecified)
  A = 0%; B = -1.3%; C = /; D = 15%
Cc1ccc(CNC(=O)C2CCCC2)cc1
  A = 4%; B = 1.1%; C = /; D = /
CC(=O)C1=NN(c2ccccc2)C(c2ccc3c(c2)OCO3)N1c1ccc(N2CCOCC2)cc1 (stereo unspecified)
  A = -9%; B = ?; C = -3; D = -11%
COc1ccc(-c2cc(N)n(S(=O)(=O)Cc3ccccc3)n2)c(OC)c1
  A = 2%; B = -0.7%; C = -28; D = -8%
C/C(=N/NC(=O)c1ccc(C(C)(C)C)cc1)c1cccnc1
  A = -6%; B = -0.4%; C = /; D = /
O=C(CNC(=O)C1COc2ccccc2O1)N/N=C\c1ccc(Cl)cc1 (stereo unspecified)
  A = -6%; B = 0.4%; C = -13; D = 2%
COc1ccc(OC)c(S(=O)(=O)N2CCCCC2C(=O)O)c1 (stereo unspecified)
  A = 0%; B = -2.1%; C = 9; D = 4%
O=C(Nc1ccc(Cl)c(S(=O)(=O)N2CCCCC2)c1)c1cccnc1
  A = -8%; B = -1.6%; C = /; D = /
Cc1onc(-c2ccccc2)c1C(=O)NC(C)C
  A = 6%; B = -0.5%; C = -18; D = -3%

Complete entries, quoted from the list. Order of screens: Rango dissoc inh | Rango-impB inh | GLA inh pH 4.5 | miR-21 reporter
`Cc1onc(-c2ccccc2)c1C(=O)NC(C)C` as listed: 6% | -0.5% | -18 | -3%
`COc1ccc(-c2cc(N)n(S(=O)(=O)Cc3ccccc3)n2)c(OC)c1` as listed: 2% | -0.7% | -28 | -8%
`COc1ccc(OC)c(S(=O)(=O)N2CCCCC2C(=O)O)c1` (stereo unspecified) as listed: 0% | -2.1% | 9 | 4%
`c1ccc(COc2ccc(-c3csnn3)cc2)cc1` as listed: 1% | 3.6% | -23 | -46%

(list continues)
Short forms – A = Rango dissoc inh; B = Rango-impB inh; C = GLA inh pH 4.5; D = miR-21 reporter
CCCCc1ccc(CC(=O)O)cc1
  A = -19%; B = 0.5%; C = -4; D = 2%
COc1ccc(-c2nnc(N3CCCCC3)c3ccccc23)cc1
  A = 13%; B = 4.2%; C = 2; D = -3%
CC1CCCCN1CCCNC(=O)Cn1c(=O)c2cccn2c2ccccc21 (stereo unspecified)
  A = -3%; B = -1.6%; C = /; D = -5%
CC(=O)c1c(N2CCN(c3ccc(F)cc3)CC2)nc(=S)n(Cc2ccccc2)c1C
  A = -8%; B = -3.3%; C = -3; D = 1%
Cc1cccc(OCc2nnc(SCC(=O)NCC3CCCO3)n2C)c1 (stereo unspecified)
  A = -11%; B = -4.5%; C = /; D = 0%
Cc1ccc([N+](=O)[O-])cc1NC(=O)c1c(-c2ccccc2)noc1C
  A = -7%; B = -1.0%; C = /; D = -1%
CCC(C)C(=O)Nc1cc(C(=O)OC)ccc1C(=O)OC (stereo unspecified)
  A = -1%; B = -2.2%; C = 9; D = -3%
CCCC(=O)Nc1ccc(C(=O)COC(=O)C2CC2C)cc1 (stereo unspecified)
  A = 5%; B = -0.8%; C = /; D = /
CCOc1ccc(S(=O)(=O)Nc2ccc(F)cc2)c(C)c1C
  A = 9%; B = 0.4%; C = -1; D = 15%
CC(C(=O)Nc1ccccc1-c1ccccc1)N1CCN(S(=O)(=O)c2ccccc2)CC1 (stereo unspecified)
  A = -9%; B = 0.5%; C = -2; D = -1%
CCC(C)NC(=O)c1ccccc1C(=O)NC(C)CC (stereo unspecified)
  A = 14%; B = -0.1%; C = -8; D = 0%
COC(=O)c1cccc(NS(=O)(=O)c2ccc(OC)c(C(=O)N3CCOCC3)c2)c1C
  A = 4%; B = -0.1%; C = /; D = -15%
COc1ccc(CNc2nccs2)cc1
  A = 0%; B = 2.0%; C = /; D = -21%
CN(C)/C=C/C(=O)c1ccc(N2CCN(c3ncc(C(F)(F)F)cc3Cl)CC2)cc1
  A = -8%; B = 1.2%; C = -7; D = -4%
COc1ccc(CCNC(=O)Cc2ccc(Cl)cc2)cc1OC
  A = -1%; B = -2.0%; C = /; D = -6%

Going on with the list.
Short forms – A = Rango dissoc inh; B = Rango-impB inh; C = GLA inh pH 4.5; D = miR-21 reporter
CCC(C)NS(=O)(=O)c1ccc(NS(=O)(=O)c2ccccc2[N+](=O)[O-])cc1 (stereo unspecified)
  A = -2%; B = -1.9%; C = 0; D = -2%
CCc1nc2ccc(F)cc2c(C(=O)NC2CCCCC2C)c1C (stereo unspecified)
  A = 13%; B = 1.4%; C = -7; D = 0%
Cc1ccc(N2C(=O)CC(NNc3nc4ccccc4s3)C2=O)cc1 (stereo unspecified)
  A = -11%; B = -0.6%; C = -1; D = -5%
CCn1cc(Cl)c(C(=O)N2N=C3/C(=C/c4cccs4)CCCC3C2c2cccs2)n1 (stereo unspecified)
  A = -2%; B = ?; C = -20; D = -12%
O=C1C2C3C=CC(C3=C3CCCCC3)C2C(=O)N1c1ccccc1 (stereo unspecified)
  A = -5%; B = 4.0%; C = 2; D = -6%
NC(=O)CN1CCN(CCN2C(=O)c3cccc4cccc(c34)C2=O)CC1
  A = -19%; B = -0.4%; C = /; D = -4%
Cc1c(C(=O)N2CCN(C(=O)c3ccccc3)CC2)oc2ccc(F)cc12
  A = -6%; B = -0.2%; C = /; D = /
Nc1nc(CSc2nc3ccccc3[nH]2)cs1
  A = 22%; B = 4.5%; C = 8; D = -34%
CN1C(=O)C(Cc2cnc[nH]2)NC1=S (stereo unspecified)
  A = -6%; B = -0.5%; C = /; D = -1%
COc1ccc(S(=O)(=O)N2CCOCC2)cc1NC(=O)Cc1coc2cc(C)ccc12
  A = 1%; B = -3.1%; C = /; D = /
Cc1ccc(NC(=O)c2nnn(CC(=O)Nc3ccccc3)c2N)cc1C
  A = -1%; B = -2.6%; C = -4; D = -11%
CC(C)OCCCNC(=O)c1ccc(NC(=O)C2=CSCCO2)cc1
  A = 17%; B = 5.4%; C = /; D = -13%
CCOC(=O)c1c(C)nc2ncccn12
  A = 3%; B = 2.5%; C = 6; D = -3%
Cc1sc(NC(=O)c2ccco2)c(CN2CCN(c3ccccc3)CC2)c1C
  A = -5%; B = -0.3%; C = -4; D = -11%
CCOc1ccc(NC(=O)c2cc(C)nc3ccccc23)cc1
  A = 28%; B = -3.0%; C = 2; D = 0%

(cont.)
Short forms – A = Rango dissoc inh; B = Rango-impB inh; C = GLA inh pH 4.5; D = miR-21 reporter
O=C(CSc1ncnc2sccc12)Nc1ccccc1F
  A = 1%; B = 0.1%; C = -1; D = -10%
CSCC(=O)N1CCC(CCC(=O)NC2CC2)CC1
  A = -14%; B = 4.3%; C = /; D = -3%
COc1ccc(C(=O)NCc2nc(C)c(C)s2)cc1OC1CCN(C(C)C)CC1
  A = -10%; B = -1.0%; C = /; D = -5%
O=C(c1ccccc1)c1nn(-c2ccccc2)c(=O)cc1C(F)(F)F
  A = 1%; B = 4.3%; C = 2; D = ?
COn1cnnc1-c1ccccc1
  A = -2%; B = 0.0%; C = -7; D = -3%
CCOc1ccc(NC(=S)NC(=O)c2cncc(Br)c2)cc1
  A = -4%; B = 0.5%; C = /; D = /
O=C(NCc1cccs1)Nc1cc(Cl)ccc1Cl
  A = 15%; B = 8.8%; C = -16; D = -13%
COc1ccc(-n2cnc3scc(-c4ccccc4)c3c2=O)cc1
  A = 0%; B = 4.3%; C = 5; D = -1%
CCOc1ccc(N(CC(=O)Nc2cc(Cl)ccc2C)S(C)(=O)=O)cc1
  A = 3%; B = -0.6%; C = /; D = 14%
CCN(CC)C(=O)c1sc(NC(=O)c2cccc([N+](=O)[O-])c2)c(C#N)c1C
  A = -17%; B = 4.5%; C = -4; D = -6%
Cc1ccc(N(Cc2cc(=O)[nH]c3ccccc23)C(=O)c2ccco2)cc1
  A = -16%; B = -0.2%; C = -2; D = 0%
O=C(NCCc1ccccn1)c1ccc(OC2CCN(CCc3ccccc3)CC2)cc1
  A = -8%; B = -0.1%; C = /; D = -22%
CC(C)c1nnc(NC(=O)CSc2nc3ccccc3s2)s1
  A = -4%; B = -0.7%; C = -14; D = -15%
Cc1cccc(N(CC(=O)N2CCc3ccccc3C2)S(C)(=O)=O)c1C
  A = -6%; B = 0.1%; C = /; D = -3%

Some of these compounds in order of molar mass, highest first.
Short forms – A = Rango dissoc inh; B = Rango-impB inh; C = GLA inh pH 4.5; D = miR-21 reporter
COC(=O)c1cc(C(=O)NNC(=O)c2ccc3c(c2)OCO3)cc([N+](=O)[O-])c1
  A = 1%; B = 7.6%; C = /; D = /
CC1CCCCN1CCCNC(=O)Cn1c(=O)c2cccn2c2ccccc21 (stereo unspecified)
  A = -3%; B = -1.6%; C = /; D = -5%
O=C(CNC(=O)C1COc2ccccc2O1)N/N=C\c1ccc(Cl)cc1 (stereo unspecified)
  A = -6%; B = 0.4%; C = -13; D = 2%

An excerpt; count on the stated rates, not on these rows.
